# hNpr1 antagonist = blocks ANP-stimulated signaling of human Npr1 receptor; P16066; HEK293 hNpr1 GloSensor cGMP, ANP-stimulated luminescence; Potency, µM (highest dose often 46.3 µM), without a hit: at the highest dose activity change, negative = inhibition, most hits filed as inhibitors; actives 1.6% (n = 76,000); AID 1347048; active = well fitted inhibition curve with a large enough effect; inconclusive = small, poorly fitted or top-dose-only effect; inactive = no such curve, though single readings can be large or run the other way;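 note: nearly all actives have a fitted effect of over 60% in size; nearly all hits also lower the signal before the agonist is added; a reference antagonist and vehicle were the controls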
# Target sequence (P16066 whole entry, looked up): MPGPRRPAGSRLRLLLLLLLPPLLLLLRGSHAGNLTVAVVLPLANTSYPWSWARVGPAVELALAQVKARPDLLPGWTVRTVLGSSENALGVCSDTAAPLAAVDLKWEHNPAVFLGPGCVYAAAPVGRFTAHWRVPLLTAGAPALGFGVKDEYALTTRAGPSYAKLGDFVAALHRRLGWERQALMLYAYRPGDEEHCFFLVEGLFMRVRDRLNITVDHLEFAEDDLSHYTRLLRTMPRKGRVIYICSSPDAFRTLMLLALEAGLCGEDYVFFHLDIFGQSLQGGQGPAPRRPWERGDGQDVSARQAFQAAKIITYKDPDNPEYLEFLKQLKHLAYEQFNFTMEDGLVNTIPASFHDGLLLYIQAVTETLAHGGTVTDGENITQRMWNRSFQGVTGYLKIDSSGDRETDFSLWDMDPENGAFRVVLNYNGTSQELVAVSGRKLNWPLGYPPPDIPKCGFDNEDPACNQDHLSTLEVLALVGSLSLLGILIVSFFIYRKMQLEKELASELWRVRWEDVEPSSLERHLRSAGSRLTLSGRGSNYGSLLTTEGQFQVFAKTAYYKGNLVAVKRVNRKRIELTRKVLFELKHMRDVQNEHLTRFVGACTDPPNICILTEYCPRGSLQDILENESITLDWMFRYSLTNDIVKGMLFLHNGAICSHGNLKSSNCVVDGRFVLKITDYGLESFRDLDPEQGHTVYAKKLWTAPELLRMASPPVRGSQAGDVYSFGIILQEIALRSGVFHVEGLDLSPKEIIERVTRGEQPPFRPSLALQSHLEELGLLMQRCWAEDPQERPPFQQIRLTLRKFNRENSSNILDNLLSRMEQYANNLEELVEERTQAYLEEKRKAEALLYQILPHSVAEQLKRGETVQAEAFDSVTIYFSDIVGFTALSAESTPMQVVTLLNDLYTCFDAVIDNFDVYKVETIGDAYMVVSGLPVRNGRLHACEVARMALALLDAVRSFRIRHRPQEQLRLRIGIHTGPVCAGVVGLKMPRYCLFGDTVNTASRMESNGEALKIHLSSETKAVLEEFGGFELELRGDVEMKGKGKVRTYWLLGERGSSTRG
#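 Compound pre-incubated 30 min at room temperature on GloSensor-loaded HEK293 cells stably carrying hNpr1 and the pGS-40F cGMP biosensor. Stimulation uses hNppA at 0.1 nM final; luminescence is taken at baseline and 20 min post-agonist.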
# Numbers without * were called inactive; ? = inconclusive; & = joins results of further samples; [ ] = dose if it differs, or a comment. % is set by controls: 0 for no effect and ±100 for the full control effect; potency is the fitted concentration of half-maximal effect. This is a subset, so the mix of outcomes need not match the whole.
SMILES	hNpr1 antagonist
COc1ccc(OC)c(CNC(=O)C2Cn3cccc3C(=O)N2)c1 (centres undefined)	-2.0%
O=C(CN1C(=O)NC(c2ccc(Cl)cc2)C2=C1COC2=O)NCc1ccccc1Cl (centres undefined)	-20.6%
O=C(c1ccoc1)N1CCC(c2nc(-c3ccccc3)no2)C1 (centres undefined)	-13.0%
COc1cccc(CNC(=O)c2c(C)noc2-c2ccccc2OC)c1	2.4%
COc1cccc(Nc2ncc(-c3cccnc3)c3c2OCC3)c1	-29.5%[70.6 µM]
COc1ccc(CNC(=O)C[C@@H]2C[C@H]3O[C@H](CNC4CCCC4)[C@@H](O)[C@H]3O2)cc1	3.2%[70.6 µM]
CC(C)CN1C(=O)COC[C@@H]1[C@H](O)c1ccc(NC(=O)COc2ccccc2)cc1	-1.9%[70.6 µM]
CS(=O)(=O)N1CCC(OC2CCN(C(=O)Nc3cccc(Cl)c3)CC2)CC1	0.9%
COc1ccc(C2Cn3nnc(-c4noc(-c5ccc(C)cc5C)n4)c3CO2)cc1 (centres undefined)	0.0%
O=C(O)COCC(=O)N[C@H]1CCN2C(=O)c3cc(-c4ccccc4F)ccc3NC(=O)[C@H]12	6.9%
Cc1cc(-c2cc3c(n(Cc4cccnc4)c2=O)CCN(C(=O)CCc2ccccc2)C3)ccc1F	-0.6%
COc1ccc(-c2n[nH]c3c2CC(=O)N(Cc2ccccc2)C3)cc1OC	-8.5%[70.6 µM]
COc1ccccc1CN1CCN(C(=O)c2ccc(CCC(C)(C)O)cc2)CC1	-3.7%
Cc1ccc(N2CCC(NC(=O)Cc3ccccc3Cl)C2=O)cc1 (centres undefined)	-4.0%
O=C(Nc1cccc(F)c1)c1cnc2c(c1)N(C(=O)Cc1cccc(C(F)(F)F)c1)CCC2	?
CCOC(=O)c1cccc(NC(=O)N2CC[C@@H](CC(=O)NCCN(C)C)[C@@H](CC)C2)c1	-2.7%[70.6 µM]
O=C(c1scc2c1OCCO2)N1CCCC2(CCC(=O)N(C3CC3)C2)C1 (centres undefined)	2.7%
O=C(Cc1ccc(N(Cc2cccc(F)c2)C(=O)c2ccco2)cc1)NCc1ccco1	0.5%
Cc1noc2c(-c3cccc(O)c3)cc(-c3cccs3)nc12	-5.0%[70.6 µM]
CCOc1ccccc1C1NC(=O)N(CC(=O)N2CCN(c3ccccc3)CC2)C2=C1C(=O)OC2 (centres undefined)	-1.1%
COc1cccc(CNC(=O)[C@@H]2C[C@@H](O)CN2C2CCN(C(=O)CC(C)C)CC2)c1	-2.1%
O=C(NCc1cccc(F)c1)C1CCCN(c2nc3ncccc3o2)C1 (centres undefined)	0.0%[70.6 µM]
CN(Cc1ccccc1)C(=O)CC1CCCCN(Cc2ccccc2)C1=O (centres undefined)	3.7%
COCc1nc(CCNC(=O)c2c3c(nc4ccccc24)CCCC3)no1	0.0%
CCOc1cc(=O)n2c(c1C(=O)Nc1ccc(OC)cc1C)CCCC2	5.2%
Fc1cccc(CN2CCC(Cc3nc(-c4ccccc4)n[nH]3)C2)c1 (centres undefined)	-1.6%
CC(=O)N1C[C@H](NC(=O)c2cc3c(n(C)c2=O)CCCC3)[C@@H](C2CC2)C1	-1.4%
CCc1nc2cc(N3CCCC(C(=O)NCc4ccccn4)C3)cnc2nc1CC (centres undefined)	-11.1%
COc1cccc(-c2ccc(F)c(C(N)=O)c2)c1OC	2.0%
COc1ccc(C[C@H](N)C(=O)NCc2c(C)ncc3c2CCNC3)cc1	1.7%
CN(C)S(=O)(=O)N1CC[C@H]2C(=O)NCCCCCCN(Cc3ccncc3)[C@@H]2C1	-1.1%
O=C(OCCF)N1CCC(Oc2cnc3c(ccn3-c3cncnc3)c2)CC1	-5.7%[70.6 µM]
CCn1cc(S(=O)(=O)N2CC[C@@H]3COCCN(C)[C@@H]3C2)cn1	1.0%
COc1cccc(NC(=O)O[C@@H]2CO[C@H]3[C@@H]2OC[C@@H]3Nc2nccc(-c3ccc4c(c3)OCO4)n2)c1	-8.9%
CCn1cnnc1CC1CCN(C(=O)c2cc(-c3ccc(C)c(C)c3)nc3ccccc23)CC1	-15.6%
CCCNC(=O)CN1CN(c2ccccc2)C2(CCN(C(=O)Nc3ccc(CC)cc3)CC2)C1=O	-0.2%
COc1cc(OC)cc(N2C(=O)[C@@H]3C[C@@H](NC(=O)NC(C)C)CCN3C2=O)c1	0.6%[70.6 µM]
COCCn1c(C)cnc1CCNC(=O)c1ccc(OC)nc1OC	-2.2%
O=C(C[C@@H]1O[C@H](CNC(=O)c2cccc(F)c2)[C@@H](O)[C@H]1O)NC1CC1	-6.0%[70.6 µM]
O=C1OC[C@@H]2CCNCc3ccccc3N12	-24.2%[70.6 µM]
CC(=O)N1CCCN(C(=O)c2ccc3c(c2)NC(C)(COc2cccnc2)CO3)CC1 (centres undefined)	-7.9%[70.6 µM]
Cc1cc(N2CCCN(C(=O)Nc3nncs3)CC2)ccn1	-1.2%
COCCNS(=O)(=O)c1cc(C(=O)O)cc(-c2ccncc2)c1	8.2%
CC(=O)NC1(C)CN(Cc2ccc(-c3ccc4c(ccn4C)c3)s2)C1	8.91µM*
Cc1ccc(C)c(C(=O)N2C[C@@H](CO)[C@H](c3ccncc3)C2)c1	-2.6%

# Taken from above:
# COc1cc(OC)cc(N2C(=O)[C@@H]3C[C@@H](NC(=O)NC(C)C)CCN3C2=O)c1 in hNpr1 antagonist: 0.6%[70.6 µM]
# COc1cccc(NC(=O)O[C@@H]2CO[C@H]3[C@@H]2OC[C@@H]3Nc2nccc(-c3ccc4c(c3)OCO4)n2)c1 in hNpr1 antagonist: -8.9%
# CCn1cc(S(=O)(=O)N2CC[C@@H]3COCCN(C)[C@@H]3C2)cn1 in hNpr1 antagonist: 1.0%

# Remaining list, next part:
SMILES	hNpr1 antagonist
CCOc1ccccc1C(=O)NC1CC(c2nnc(CN(C)C)n2C)C1 (centres undefined)	13.5%
COc1cccc(CN(C)Cc2cccn2C)c1	18.1%[70.6 µM]
CC(C)Oc1cccc(-c2nnc(CCC(=O)NCC3CCCCC3)c(=O)[nH]2)c1	-2.6%
O=C(c1ccncc1)N1CCC(Oc2ccccc2-c2nc(-c3ccccc3)no2)C1 (centres undefined)	0.9%
O=C(CC[C@H]1NC(=O)c2ccccc2NC1=O)Nc1ccncc1	4.7%
COc1ccc(C(=O)N2CCCCCCNC(=O)[C@@H]3CCCC[C@@H]32)cc1F	3.7%
N#Cc1ccc(CN2CCc3nc(C(=O)NCc4cccc(F)c4)oc3CC2)cc1	?
O=C(CC[C@@H]1CNC(=O)[C@@H]2C[C@H](NS(=O)(=O)c3ccc(F)cc3)CN12)NCc1ccccc1	7.6%
O=C(Cn1cccc1-c1nc(-c2ccc3c(c2)OCO3)no1)NCCc1ccccc1	-3.2%
O=C(NCCC1CCN(C(=O)Nc2cccc(F)c2)CC1)c1cc(F)ccc1F	-2.7%
c1ccc(-c2ccc3ncc(Nc4cnccn4)n3n2)cc1	1.1%[70.6 µM]
CCn1c(C2CCCN(C(=O)c3sc(C(C)C)nc3C)C2)nn(C)c1=O (centres undefined)	-1.1%
COCCOc1ncccc1-c1noc([C@@H]2CCCN2C2CCN(C(C)=O)CC2)n1	3.2%[70.6 µM]
Cc1ccc(N2CCN(C(=O)c3cc(C(F)(F)F)nn3C)CC2=O)cc1	1.9%
COc1cc(OC)cc(-c2onc(C)c2C(=O)NCc2ccccc2)c1	1.1%
CCOc1ccc(OCC)c(-c2nc3ccc(-c4ccc(OC)c(OC)c4OC)cc3o2)c1	5.9%
O=C(c1ccccc1Cl)N1CCC(c2nn(-c3ccc(Cl)cc3)c(=O)[nH]2)CC1	14.0%
CCOCc1nc(C2CCCN(C(=O)c3cccc(OC)c3)C2)no1 (centres undefined)	-15.2%
CN1CCC(NC[C@H]2O[C@H](Cc3cc(-c4ccccc4)on3)CC[C@@H]2O)CC1	-20.0%[70.6 µM]
O=C1CCCCC(Cc2cccnc2)(C(=O)NCC2CC2)N1 (centres undefined)	1.3%
CN1CCOc2c(C(=O)NCCc3cnc[nH]3)cc(-c3ccc(N4CCOCC4)cc3)cc21	1.4%
O=C(c1ccc(N2CC[C@H](O)C2)nc1)N1CCC(Oc2cccnc2)CC1	-3.8%
CCC1Oc2ccc(NC(=O)Cc3ccc(F)cc3)cc2CN(Cc2cccc(OC)c2)C1=O (centres undefined)	-18.0%
COC(=O)c1nc(NC(=O)C[C@H]2NC(=O)c3ccccc3NC2=O)sc1CC(C)C	-12.3%
O=C(O)CO[C@@H]1COCC[C@H]1NC(=O)c1ccccc1-c1ncn[nH]1	9.3%
Cc1ccc2c(c1)nc1n2[C@@H](CNC2CCC2)COC1	-8.5%[70.6 µM]
COc1ccc(C(=O)N[C@@H]2C=C[C@@H](c3c(C)nn(Cc4ccccc4)c3C)C2)cc1	-2.9%[70.6 µM]
CN1CCCN(S(=O)(=O)c2ccccc2F)c2ccccc21	1.1%
CC(=O)Nc1ccc(C2(C(=O)NCc3ccco3)CCC2)cc1	1.5%
COc1cccc(CN2CCc3nc(C(=O)Nc4nc(C)cs4)oc3CC2)c1	-20.4%[70.6 µM]

# Later entries
Molecule | hNpr1 antagonist
COC[C@@H]1CN(C(=O)c2ccc(F)cc2Cl)C[C@H]1C(N)=O | 0.9%
O=C1NC2(CN(C(=O)c3ccccc3F)C2)Oc2ccccc21 | 6.8%[70.6 µM]
CN1CCCCCC(O)c2cc(C(=O)NCc3ccc(F)cc3)ccc21 (centres undefined) | -12.6%
CC(C)(C)n1nc(C2CCOCC2)nc1C1=NNC(=O)CC1 | 7.9%
CNC(=O)NCCc1ncc(C)n1C1CCCCCCC1 | 5.3%
COc1ccc(-c2nc(C)nc3c2CCN(C(=O)c2ccccc2OC)CC3)cc1 | 10.8%
COc1cc(F)ccc1-c1cc(-c2c(C)noc2C)c2cncn2c1 | 1.9%[70.6 µM]
C[C@@]1(O)CCN(CC(=O)N2CCOc3ccccc32)C[C@@H]1O | 5.6%
CCOCCCNC(=O)NCCc1noc(-c2cccnc2)n1 | 0.0%
COc1ccc(-c2ccc3nnc(CNC(=O)Cc4cccc(F)c4)n3n2)cc1 | 7.1%
O=C([C@H]1CCC[C@@H](O)C1)N1CCN(Cc2ccc(C(F)(F)F)cc2)CC1 | -0.7%
FC1CCN(Cc2cn(Cc3ccccc3)nc2-c2cc3ccccc3o2)CC1 | -2.9%
O=C1NC2(CCCN(C(=O)c3ccc(F)cc3)C2)Oc2ccccc21 (centres undefined) | -5.1%[70.6 µM]
O=C1N[C@@H]2CCN(S(=O)(=O)c3ccc4ccccc4c3)[C@@H]2C(=O)N1c1ccc(F)cc1 | -2.2%
O=C(Cn1nc2n(c1=O)CCCCC2)Nc1cccc(Br)c1 | -19.7%
O=C1N[C@H](CC(=O)N2CCN(c3ccccn3)CC2)C(=O)Nc2ccccc21 | -4.1%
CCc1noc(-c2cccn3c(CNC(=O)c4cc(C)cc(C)c4)nnc23)n1 | -0.3%
CC(=O)Nc1cccc(-c2nccc3c(=O)cc(N4CCOCC4)oc23)c1 | -1.2%[70.6 µM]
CC(C)CN1C(=O)C(CC(=O)N2CCOCC2)Sc2ncccc21 (centres undefined) | -0.2%
O=C(C[C@@H]1C[C@H]2O[C@H](CNC3CCC(F)(F)CC3)[C@@H](O)[C@H]2O1)N1CCOCC1 | 1.9%[70.6 µM]
O=C1Cc2c(-c3ccccc3Cl)n[nH]c2CN1Cc1ccccc1F | -7.5%[70.6 µM]
CCc1noc(-c2cccn3c(CNC(=O)C4CCCCC4)nnc23)n1 | 8.2%
COC[C@@H]1CN(Cc2cnn(C(C)C)c2)C[C@H]1c1nc(C2CC2)no1 | 1.0%
CC1Oc2ccc(NC(=O)c3cccc(F)c3)cc2CN(Cc2ccc3c(c2)OCO3)C1=O (centres undefined) | -25.0%

# At a glance, some entries already given.
Molecule | hNpr1 antagonist
CCc1noc(-c2cccn3c(CNC(=O)C4CCCCC4)nnc23)n1 | 8.2%
COC[C@@H]1CN(Cc2cnn(C(C)C)c2)C[C@H]1c1nc(C2CC2)no1 | 1.0%
CC1Oc2ccc(NC(=O)c3cccc(F)c3)cc2CN(Cc2ccc3c(c2)OCO3)C1=O (centres undefined) | -25.0%

# Going on with the list.
Molecule | hNpr1 antagonist
Cc1ccc(C)c(NC(=O)N(C)CC2CCOC2)c1 (centres undefined) | 0.7%
Cc1ncc2n1C(=O)N(C1CCN(Cc3ccc(N(C)C)cc3)CC1)C2 | 0.0%&4.2%
CCOc1ccc(CN2CCN(C3CCN(C(C)C)CC3)CC2CCO)cc1 (centres undefined) | 5.5%
COc1ccc(CNC(=O)N2CC[C@@](O)(C3CCC3)[C@H](C)C2)cc1 | -1.9%
CN(C)c1cccc(Nc2cc3c(cn2)NCCN(Cc2ccccc2)C3)c1 | -9.2%[70.6 µM]
COc1ccc(-c2cc(N3CCN(C(=O)Cc4c(F)cccc4Cl)CC3)n[nH]2)cc1 | 7.2%
CCn1c(CN(C)C)nnc1C1CCN(C(=O)c2ccn(C(F)F)n2)CC1 | 0.9%
COc1cccc(CC(=O)N2CCCn3nc(C)c(-c4ccnn4C(C)C)c32)c1 | -2.6%[70.6 µM]
COc1ccc(NC(=O)C2CC(=O)N(c3n[nH]c4ccccc34)C2)c(OC)c1 (centres undefined) | -1.3%
Cc1ccccc1N1Cc2c(NC3CCCCC3)ncnc2N(C)CC1=O | 3.0%
CC(C)c1ccc(CN2C[C@@H]3C(=O)N(Cc4ccc5c(c4)OCO5)C(=O)[C@@H]3C2)cc1 | ?
NC(=O)c1cccnc1N1CCN(CC2(O)CNCCOC2)CC1 (centres undefined) | 4.0%
CCC(C)(C)c1ccc2c(C(=O)N3C[C@H](N)C[C@H]3C(=O)NC)csc2c1 | 1.9%
Cn1cc(C(=O)N2CCC3(CC2)CN(Cc2ccccc2)CC3CO)cn1 (centres undefined) | 3.6%
Cn1cnnc1CC1CCN(S(=O)(=O)c2ccc(F)cc2)CC1 | -10.0%

# Compound activity: PubChem BioAssay, National Center for Advancing Translational Sciences (NCATS)
